Source: PubChem
Hsc70 ATP site = small molecules displacing fluorescent ligand from Hsc70 – biochemical, fluorescence polarization, primary screen (AID 568) | 83,000 tested, under 10 active | displacement, % at 20 µM, or IC50 in µM where a hit was titrated | Hsc70 fluorescence polarization, probe displacement; higher % means a stronger effect; strong numbers were not always called active;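 active means displacement above 50% without optical interference and an IC50 on retest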;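 further: ATPase domain with a fluorescein-tagged ATP probe; 0% = vehicle and 100% = excess ADP; read after one hour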
MT1-MMP reporter = inhibitors of MT1-MMP promoter transcription, cell-based, luciferase reporter, luminescence (AID 618) | actives 0.62% (n = 87,000) | MT1-MMP promoter luciferase reporter cells, luminescence | calls from a first round at 10 µM; hits with a dose series show EC50 in µM;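 active means over half of the reporter light lost at 10 µM or EC50 under 50 µM; inactive means the rest and hits that failed the dose series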;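 further: actives suppress MT1-MMP promoter-driven transcription so potencies describe inhibitors; HT1080 fibrosarcoma cells; overnight exposure; toxic or luciferase-blocking compounds were not removed from the actives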
WNV NS2B-NS3 inh = inhibitors of West Nile virus NS2B-NS3 protease; P06935; WNV NS2B-NS3 protease, fluorogenic substrate Ex360/Em465; stronger effect = lower value; z-score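 (tested at a level between 10 and 100 µM)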; actives 0.18% (n = 65,000); AID 577;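 active means z-score at -3 or under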;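 further: score is relative to mean and spread of the compound wells of a plate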
Target sequence (P06935 1371-1501 limits assumed): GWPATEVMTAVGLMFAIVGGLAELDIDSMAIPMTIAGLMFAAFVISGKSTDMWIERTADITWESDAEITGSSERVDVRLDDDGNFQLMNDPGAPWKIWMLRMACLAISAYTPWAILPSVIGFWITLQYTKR
Target sequence (P06935 1502-1679 limits assumed): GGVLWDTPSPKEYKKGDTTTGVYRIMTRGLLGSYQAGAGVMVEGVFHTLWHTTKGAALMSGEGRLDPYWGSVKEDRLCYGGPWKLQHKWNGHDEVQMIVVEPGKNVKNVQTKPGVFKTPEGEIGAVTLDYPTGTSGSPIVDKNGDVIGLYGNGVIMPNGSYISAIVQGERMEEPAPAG
* = called active by the depositor; i = inactive; . = not tested or not shown; + = active, no number.

Value order – Hsc70 ATP site, MT1-MMP reporter, WNV NS2B-NS3 inh
CCOC(=O)N1CCN(C(=O)CSc2nnc(-c3ccc(C)c(C)c3)o2)CC1
→ -4.8%, i, 0.66
O=C(CNC(=O)c1ccco1)NCC(=O)OCc1cccc(Cl)c1
→ -0.4%, i, .
Nc1ccn(-c2ccc(Cl)cc2)c(=O)c1
→ -0.1%, i, -0.11
O=C(COC(=O)CCN1C(=O)c2ccccc2C1=O)Nc1ccc(S(=O)(=O)N2CCCC2)cc1
→ 3.5%, i, 0.0096
O=C1NCC(O)=C1C=NCCCO
→ -7.9%, i, 0.88
CCCCCn1c(=O)[nH]c2cc(C(=O)NCCCN(CC)CC)ccc2c1=O
→ 2.2%, i, 0.74
COc1ccc(-c2c(NC(C)=O)n(C)c3ccccc3c2=O)cc1
→ -2.6%, i, -0.07
COc1ccc(S(=O)(=O)n2cnc3cc(C)c(C)cc32)cc1
→ 0.6%, i, -0.75
CCOc1ccccc1C(=O)Nc1ccc(S(=O)(=O)N2CCOCC2)cc1
→ 8.9%, i, 0.91
CCn1c(=O)cc(O)c2ccccc21
→ -3.3%, i, -0.3
CC(Oc1cccc(Cl)c1)C(=O)Nc1cc(=O)n(C)c(=O)n1C (stereo not given)
→ 2.1%, i, -0.07
CN(C(=O)CSc1nnc(-c2ccncc2)n1C)C1CCS(=O)(=O)C1 (stereo not given)
→ 1.2%, i, .
O=C(O)CCn1c(SCc2cccc3ccccc23)nc2ccccc21
→ 1.6%, i, .
NS(=O)(=O)c1ccc(NC(=O)CSc2ccc3ccccc3n2)cc1
→ -2.8%, i, .
c1ccc(CCN2CN=C(Nc3nc4ccccc4o3)NC2)cc1
→ 0.5%, i, 1.2
C=CCSc1nnc2c(n1)OC=Nc1ccccc1-2
→ 3.4%, i, 0.13
CCN1CCc2c(sc(N)c2C#N)C1
→ -4.8%, i, 1.5
Cc1ccc(CS(=O)(=O)CCC(=O)NCCCN2CCCC2=O)cc1
→ -2.2%, i, -1.5
CCOC(=O)CSC1=C(C#N)C(c2ccc(C)s2)CC(=O)N1 (stereo not given)
→ -6.4%, +, -0.37
CCOCC(=O)N1CCN(c2ccc(F)cc2)CC1
→ 5.8%, i, -1.5
Clc1ccc(OCc2nnc(-c3ccccc3Br)o2)c(Cl)c1
→ -2.5%, i, -0.06
Cc1oc(-c2ccc(Cl)cc2)nc1CN1CCCC(C(=O)NCc2ccccn2)C1 (stereo not given)
→ 2.6%, i, -0.29
COc1cc(CN2CCC(C(=O)N3CCC(C)CC3)CC2)cc(Br)c1O
→ -1.0%, i, -0.41
Cc1ccnc2nc(C(=O)OCCOc3cccc(Br)c3)nn12
→ -2.4%, i, 0.7
O=C(CSc1nnc(CNc2ccc(F)cc2)n1Cc1ccccc1)NCc1ccccc1
→ 0.1%, i, .
Cc1c(OCC(=O)OC(C)(C)C)ccc2c3c(c(=O)oc12)CCC3
→ -6.9%, i, 1
Cc1nnsc1NC(=O)OCCCl
→ -4.3%, i, .
COc1ccccc1N1CCN(C(=O)C2CCCO2)CC1 (stereo not given)
→ 2.7%, i, -0.94
C/C(=N\NC(=O)c1c[nH]c2ccccc12)c1ccc(C)o1
→ 0.7%, i, .
O=C(CCCNS(=O)(=O)c1ccccc1)NCc1ccco1
→ -8.2%, i, -0.08
Cc1ccc(S(=O)(=O)C(C#N)c2nc3ccccc3nc2N2CCN(C)CC2)cc1C (stereo not given)
→ 0.7%, i, .
COc1ccc(N2C(=O)CC(NCc3ccc(F)cc3)C2=O)cc1 (stereo not given)
→ 1.3%, i, .
CCOC(=O)c1cnn2c1[nH]c(=O)c1ccccc12
→ 0.2%, i, 0.68
O=C(Oc1ccc2ccccc2c1)c1ccccc1
→ 4.5%, i, .
c1ccc2c(c1)nc(NCCN1CCOCC1)c1nncn12
→ -2.8%, i, 0.45
COC(=O)c1ccc(NC(=O)CCNS(=O)(=O)c2cccc3nonc23)cc1
→ 5.5%, i, 0.37
COc1ccc(OCc2cccc(C(=O)Nn3cc([N+](=O)[O-])cn3)c2)cc1
→ 3.4%, i, .
CCOC(=O)C(CCCOc1ccccc1)C(=O)OCC
→ 0.1%, i, .
CC(=O)Nc1cccc(N(C)C)c1
→ 4.9%, i, -0.92
Cc1ccc(-c2[nH]nc3c2C(c2cccnc2)C(C#N)=C(N)O3)cc1 (stereo not given)
→ -3.0%, i, -1.4
CCCN1C(=O)c2cc(C(=O)NCc3ccc(OC)cc3)ccc2C1O (stereo not given)
→ 5.4%, i, 3
Cc1cccc2cc(COC(=O)COc3ccccc3)c(=O)[nH]c12
→ 4.3%, i, -1.5
O=C(c1ccc2c(c1)OCO2)N(CC1CCCO1)C1(C(=O)NC2CCCC2)CCCCC1 (stereo not given)
→ -3.9%, i, -1.1
Cc1ccnc(N2CCN(c3c4c(c(C#N)c5nc6ccccc6n35)CCC4)CC2)c1
→ -30%, i, 0.1
CCNC(=O)NC(=O)C(C)Sc1nc2cc(C(=O)OC)ccc2c(=O)n1-c1ccccc1 (stereo not given)
→ 0.0%, i, .
COc1cccc(N2CC(C(=O)Oc3ccc4ccccc4c3)CC2=O)c1 (stereo not given)
→ -3.6%, i, .
CC(=O)NC(CC(=O)NCC(c1ccco1)N(C)C)c1ccccc1 (stereo not given)
→ 1.9%, i, -0.75
CCCC(=O)Nc1c(-c2cccs2)c(=O)c2ccccc2n1C
→ 3.1%, i, .
CCCC(=O)Nc1ccc(Cl)c(NC(=O)CC)c1
→ 0.4%, i, 1.1
COc1ccc(CCNC(=O)c2c(O)c3c([nH]c2=O)CCCC3)cc1OC
→ -2.0%, i, -1.3
CNC(=S)N1N=C(c2ccccc2)CC1c1ccc(Br)cc1 (stereo not given)
→ 1.7%, i, .
CC(=O)NC1CC2CCCC(C1)N2S(=O)(=O)c1cccc(F)c1 (stereo not given)
→ -7.1%, i, 0.49
Cc1cc(C)c2ccc(C(=O)O)nc2c1O
→ -2.3%, i, .
CCN(CC)C(C)C(=O)NCC1(c2ccccc2)CCOCC1 (stereo not given)
→ 4.9%, i, .
Cc1cccc(N(CC(=O)Nc2ccccc2F)S(C)(=O)=O)c1
→ -9.7%, i, .
CS(=O)(=O)N1CCN(c2ccccc2NC(=O)c2ccco2)CC1
→ 3.1%, i, .
NC(=O)C1(N2CCCCC2)CCN(CC(=O)Nc2ccc(Oc3ccccc3)cc2)CC1
→ 0.4%, i, -0.6
O=C(Cn1cnc2c(nnn2-c2cccc(Cl)c2)c1=O)N1CCCC1
→ -2.8%, i, -0.65
Cc1ccc(Nc2cc(C)nc3nnnn23)cc1
→ -0.2%, i, -0.82
FC(F)(F)c1cc(-c2ccco2)nc(-n2nnc3ccccc32)n1
→ -9.8%, i, 0.25

(listing goes on)
Value order – Hsc70 ATP site, MT1-MMP reporter, WNV NS2B-NS3 inh
O=C(COC(=O)c1cc(S(=O)(=O)N2CCOCC2)ccc1O)NCCc1ccccc1
→ 3.4%, i, .
CN1CCN(c2ccccc2NC(=O)c2ccc(-c3ccccc3)cc2)CC1
→ 3.8%, i, -0.006
Cn1c(C(=O)N2CCCC(C(=O)NCc3ccc4c(c3)OCO4)C2)cc2sccc21 (stereo not given)
→ 1.5%, i, -0.18
COc1ccc(-c2nnc(SCc3ncc(-c4ccccc4)o3)o2)cc1
→ -0.8%, i, 0.93
CN1C(=O)C(O)(c2sc(N)nc2-c2ccccc2)c2ccccc21 (stereo not given)
→ -0.4%, i, -1.7
O=C(CCN1C(=O)C2CC=C(Cl)CC2C1=O)Nc1ccccc1O (stereo not given)
→ -3.7%, i, -0.34
Cc1noc(C)c1C(=O)N1CCN(Cc2ccc3c(c2)OCO3)CC1
→ -1.8%, i, 3.9
COc1ccc(C2c3c(oc4ccccc4c3=O)C(=O)N2c2ccccn2)cc1OC (stereo not given)
→ -1.9%, i, -0.91
CC1CCCCN1Cc1ccc(-c2nn[nH]n2)cc1 (stereo not given)
→ 9.2%, i, 0.89
COc1ccc(N=C2NN=C(c3ccc4c(c3)OCCO4)CS2)cc1
→ 2.4%, i, .
Cn1ncc(N)c1C(=O)Nc1cccc(C(F)(F)F)c1
→ 7.6%, i, -0.91
CCn1c2ccccc2c2nc3ccccc3nc21
→ 3.8%, i, -0.55
O=C1Nc2ccccc2OC1CC(=O)N1CCCC1 (stereo not given)
→ 3.0%, i, 0.05
CCCC(=O)c1cc2ccccc2oc1=O
→ -1.8%, i, -0.12
COC(=O)CSc1nnc(-c2ccoc2C)n1-c1ccc(OC)cc1
→ -7.5%, i, 1.5
Cc1ccccc1N1CCN(CCN2C(=O)CC(=C3c4ccccc4-c4ccccc43)C2=O)CC1
→ 2.7%, i, .
COc1ccccc1C(=O)N/C(N)=N/c1nc2ccccc2o1
→ -29%, i, .
COc1cc(NS(=O)(=O)c2cccc3nsnc23)c(C(=O)O)cc1OC
→ -0.7%, i, -1.1
CC(Sc1nnc(C2CCCCC2)n1N)C(=O)NCc1ccc2c(c1)OCO2 (stereo not given)
→ -5.7%, i, -0.05
N#Cc1c(NCCCO)nc(NCc2ccccc2)c2c1CCN(Cc1ccccc1)C2
→ 6.7%, i, -0.11
CO/N=C(/CS(=O)(=O)c1ccc(Br)cc1)c1ccc(OC)cc1
→ -5.1%, i, .
Cc1c(NC(=O)c2cc(-c3cccs3)on2)c(=O)n(-c2ccccc2)n1C
→ -5.0%, i, 0.24
CC(=O)N(Cc1ccco1)C1(C(=O)NC2CCCCC2)CCCCC1
→ 6.1%, i, -0.77
Cc1cc(C)n(C(=O)c2ccncc2)n1
→ -1.5%, i, -1.1
Cc1sc2ncnc(NCCN3CCOCC3)c2c1C
→ -5.7%, i, .
O=C1C=C(NCc2ccccc2)C2(CCCCC2)O1
→ 1.9%, i, -0.55
O=C1Nc2ccccc2C(O)(C(=O)N2CCCCC2)N1c1ccccc1 (stereo not given)
→ 3.1%, i, -0.09
COC(=O)c1ccc(CSc2ccc3nnc(-c4ccc(OC)c(OC)c4)n3n2)o1
→ -1.5%, i, 1.1
COc1cc(/C=c2\sc3nc(-c4ccncc4)nn3c2=O)ccc1OC(C)=O
→ -6.6%, i, -0.09
Cc1cc(C)n2nc(C(=O)NCc3ccco3)nc2n1
→ 0.5%, i, -0.66
O=C(NCC1CCCO1)C1CCCN(S(=O)(=O)c2cccc3nsnc23)C1 (stereo not given)
→ -0.9%, i, 0.62
CC(C)(C)c1cc(CCC(=O)N2CCNCC2)c(C(C)(C)C)cc1O
→ -0.9%, i, -0.84
COCCNC(=O)CN1C(=O)CSc2ncccc21
→ 7.8%, i, -0.67
CC(=O)c1cnc2nc(C(F)(F)F)nn2c1C
→ 0.5%, i, -0.73
O=C(NCc1ccco1)c1cc2ccccc2o1
→ -3.6%, i, -0.23
Cc1ccc(C)c(N=C2NC(=O)CS2)c1
→ 4.1%, i, 1.4
Cc1onc(-c2ccccc2)c1C(=O)Oc1cccnc1
→ -0.1%, i, -0.32
CCCCOC(=O)C(C)Nc1n[nH]c(=S)[nH]c1=O (stereo not given)
→ -0.3%, i, .
O=C(CSc1nnnn1-c1ccc(F)cc1)Nc1nc2ccccc2s1
→ -2.4%, i, .
Cc1ccc(C)n1-n1c(C)nc2scc(-c3ccccc3)c2c1=O
→ 4.2%, i, .

3 compounds from above, sorted by molecular weight, rising.
Value order – Hsc70 ATP site, MT1-MMP reporter, WNV NS2B-NS3 inh
Cc1ccc(C)n1-n1c(C)nc2scc(-c3ccccc3)c2c1=O
→ 4.2%, i, .
CC(=O)N(Cc1ccco1)C1(C(=O)NC2CCCCC2)CCCCC1
→ 6.1%, i, -0.77
CC(C)(C)c1cc(CCC(=O)N2CCNCC2)c(C(C)(C)C)cc1O
→ -0.9%, i, -0.84

Carrying on.
Value order – Hsc70 ATP site, MT1-MMP reporter, WNV NS2B-NS3 inh
NC(=O)C1CCN(C(=O)CN2CCCc3ccccc32)CC1
→ 3.9%, i, 0.87
COc1ccc(OC)c(C2/C(=C(/O)c3ccccc3)C(=O)C(=O)N2Cc2ccco2)c1 (stereo not given)
→ -0.1%, i, -0.52
O=c1cc(CSc2nnc(COc3ccccc3)o2)c2ccccc2[nH]1
→ 6.9%, i, -0.54
CCOC(=O)C1=C(c2ccccc2)Nc2ncnn2C1c1cc(OC)ccc1OC (stereo not given)
→ 0.3%, i, 1.8
CCn1c(NC(=O)c2ccco2)c(-c2ccccc2Cl)c(=O)c2ccccc21
→ -4.6%, i, 0.57
COc1ccccc1NC(=O)CSc1nnc(-c2ccco2)n1Cc1ccco1
→ -1.7%, i, -0.65
Cc1ccc(C(O)c2cccnc2)o1 (stereo not given)
→ 8.8%, i, 0.31
S=C(c1ccc(N2CCCC2)cc1)N1CCCCC1
→ 4.0%, i, 0.85
O=C(c1ccccc1)C1CCc2occc2C1=O (stereo not given)
→ 0.0%, i, 1.4
c1ccc2nc3c(nc2c1)sc1nc2ccccc2n13
→ 2.3%, i, -0.2
CCOC(=O)c1cn(CC(=O)Nc2ccc(C(C)C)cc2)nn1
→ -1.4%, i, -1.7

Entries of single compounds from above.
Record of O=C(c1ccccc1)C1CCc2occc2C1=O (stereo not given) : Hsc70 ATP site = 0.0%; MT1-MMP reporter = i; WNV NS2B-NS3 inh = 1.4
Record of CCn1c(NC(=O)c2ccco2)c(-c2ccccc2Cl)c(=O)c2ccccc21 : Hsc70 ATP site = -4.6%; MT1-MMP reporter = i; WNV NS2B-NS3 inh = 0.57
Record of c1ccc2nc3c(nc2c1)sc1nc2ccccc2n13 : Hsc70 ATP site = 2.3%; MT1-MMP reporter = i; WNV NS2B-NS3 inh = -0.2

Compounds were not picked by outcome; any-hit rate near 0.8%.
